fixLJ activator – activators of Burkholderia fixLJ two-component system. B. multivorans fixK-promoter GFP reporter, 18 h; active compounds read high. z-score (no concentration beside the values). actives 0.3% (n = 29,000);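 active means replicate mean overnight rise in green fluorescent reporter signal, 3 or more SD over negative controls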;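 further: score is relative to vehicle wells of the plate; 300 nL library stock went into each well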
An asterisk follows results filed as active; & = joins results of further samples.

cpd | Compound | fixLJ activator
1 | COC(=O)[C@@H]1[C@H]2C[C@H]3c4[nH]c5ccccc5c4CCN3C[C@@H]2CC[C@@H]1O | -1.4
2 | CCCOc1ccc(OCCN2CCC(O)C(C(=O)O)C2)cc1 (stereo not given) | -1.4
3 | CCc1ccccc1NC(=O)CCS(=O)(=O)c1cccc2nonc12 | 0.29
4 | CCc1ccccc1NC(=O)CSc1ncc(S(=O)(=O)c2ccccc2)c(=O)[nH]1 | -0.34
5 | O=C(Nc1cc(Cl)ccc1O)c1cc2nc(-c3ccc4c(c3)OCO4)cc(C(F)(F)F)n2n1 | -0.15
6 | Cc1[nH]cnc1CSCCNC(=O)C=Cc1cnc(N)nc1 | -0.64
7 | N#Cc1c(C(F)(F)F)cc(-c2ccc(F)cc2)nc1SCC(=O)Nc1ccccc1 | -2.1
8 | Cc1c(CN2CCCn3nc(CNC(=O)C4CCC4)cc3C2)cnn1C | 1.4
9 | Cc1c(NC(=O)c2cc(=O)c3cc(Cl)ccc3o2)c(=O)n(-c2ccccc2)n1C | -2
10 | O=c1[nH]c2ccccc2n1C1CCN(CCCC(c2ccc(F)cc2)c2ccc(F)cc2)CC1 | -2.1&-0.14
11 | COc1ccc(NC(=O)C(=O)NCCc2ccc(OC)c(OC)c2)c(OC)c1 | 0.1
12 | Cc1ccc(CNC(=O)C2CCN(c3nc4ccccc4n(C)c3=O)CC2)cc1 | 0.35
13 | CC(=O)Nc1ccc(S(=O)(=O)NC2(C(F)(F)F)C(=O)Nc3c2c(=O)[nH]c(=O)n3-c2ccc(C)cc2)cc1 (stereo not given) | -0.59
14 | COc1cccc(OCCCCn2c(-c3ccc(Cl)cc3)nc3ccccc3c2=O)c1 | -0.41
15 | CCOc1ccccc1NC(=O)Cn1nnc(C(=O)NCc2cccs2)c1N | -1.8
16 | CC(C)[N+]1(C)C2CC[C@@H]1CC(OC(=O)C(CO)c1ccccc1)C2 (stereo not given in full) | -0.57
17 | O=C(CCc1nc2cccnc2n1Cc1ccccc1)NCc1cccc(Cl)c1 | -1.7
18 | Cc1csc(SCC(=O)N2CCN(C(=O)c3ncn[nH]3)CC2)n1 | -0.43
19 | COc1ccc(NC(=O)Cn2cnc3ccc(S(=O)(=O)N4CCC(C)CC4)cc3c2=O)cc1OC | 0.33
20 | Cc1ccc(Nc2cc(C)c(C#N)c3nc4ccccc4n23)cc1Cl | -0.75
21 | CC(=O)c1cccc(NC(=O)CCS(=O)(=O)c2cc(Br)cc3c2N(C(=O)C2CC2)CC3)c1 | 0.55
22 | CC1=C(C(=O)OCC2CCCCC2)C(c2c(F)cccc2Cl)CC(=O)N1 (stereo not given) | -0.57
23 | CCOc1ccccc1NC(=O)Cn1nnc2sc(-c3ccccc3)cc2c1=O | -0.54
24 | CCC1=Nc2cc(C(=O)NCC(C)c3ccccc3)ccc2Sc2ccc(C)cc21 (stereo not given) | -0.1
25 | CCc1ccc(CN(Cc2ccco2)C(=O)COc2ccc(Cl)c(C)c2)cc1 | 0.6
26 | CC1CCCN(C(=O)c2ccc(CSc3nc4ccncc4n3Cc3ccccc3)cc2)C1 (stereo not given) | -0.28
27 | C[C@]12CC[C@H](O)CC1=CC[C@@H]1[C@@H]2CC[C@]2(C)C(=O)CC[C@@H]12 | -1.8
28 | Cc1cc(N2CCN(c3cc(Cl)ccc3C)CC2)n2nc(-c3ccccc3)nc2n1 | -1
29 | CC1(C)OC(=O)NC1=O | -0.49
30 | Cc1nc(CC(=O)N2CCCC(Cc3nc4ccccc4[nH]3)C2)cs1 (stereo not given) | -1.7
31 | O=C(CCN1CCC(CCn2cccn2)CC1)Nc1nccs1 | 0.38
32 | COc1ccc(NC(=O)c2c(NC(=O)Cc3ccccc3)sc3c2CCCC3)cc1 | 1.2
33 | Cc1cccc(-c2ccc(NC(=O)C3CCN(CCn4cnnc4)CC3)cc2)c1 | -0.05
34 | CO[C@@]12CCC(NC(C)=O)CC1N(C(=O)Cc1c(C)nc(C)[nH]c1=O)CC2 (stereo not given in full) | -0.61
35 | O=C(CN1CCCN(C(=O)C2CCCC2)CC1)NCc1ccccc1 | -0.73
36 | CCCN(Cc1cccnc1)C(=O)Nc1ccc(C(=O)NCC)c(Cl)c1 | 0.1
37 | Cc1cc(C)c2oc(C(=O)Nc3ccc(S(=O)(=O)N4CCCCC4)cc3)cc(=O)c2c1 | -1.2
38 | Cc1nc(-c2ccc(S(=O)(=O)NCc3noc(C4CC4)n3)s2)cs1 | -2.6
39 | Cc1noc(C)c1S(=O)(=O)N1CCCC(C(=O)Nc2ccc(C(C)C)cc2)C1 (stereo not given) | 0.77
40 | COCc1cc(N2CCOc3c(O)cc(-c4ccccc4C)cc3C2)ncn1 | -1.3
41 | Cc1ccc(CN(C(=O)COc2c(C)cccc2C)C2CCS(=O)(=O)C2)o1 (stereo not given) | 0.16
42 | CN(CC(=O)N(C)Cc1ccc(-n2cccn2)cc1)Cc1ccccn1 | 0.87
43 | Cn1c(NCc2ccccc2F)nc2ccccc21 | -0.07
44 | O=C(NCCCc1nc2ccccc2n1Cc1ccccc1Cl)c1ccco1 | 0.34
45 | CCc1cc(CN(C)C(=O)C2(c3ccc(F)cc3)CCOCC2)on1 | -0.28
46 | Cc1cc(C)cc(OCC(=O)Nc2c(C)ccc3nsnc23)c1 | 0.03
47 | COc1ccc(CCN2C(=O)N(c3ccc(C)cc3)C(=O)C2CC(=O)Nc2ccc(F)cc2)cc1 (stereo not given) | 1.2
48 | COC(=O)c1c(SCC(=O)Nc2cc(C)cc(C)c2)[nH]c2ccccc2c1=O | -4.6
49 | CCCCOC(=O)c1ccc(NC(=O)c2cc3c(=O)n4cccc(C)c4nc3s2)cc1 | -2
50 | Cc1ccc(Cc2cn3cc(-c4ccccc4)nc3s2)cc1 | -1.5
51 | CCCOc1ccc(Oc2nc(NCC(C)C)nc(N(C)C)n2)nn1 | -0.08
52 | CCc1cc(C(=O)N2CCN(c3ccccc3)CC2)no1 | -2.3
53 | Cc1ccc(CCNC(=O)c2cc3sccc3n2Cc2ccc(Cl)cc2)cc1 | 0.31
54 | Cc1ccc2nc(NC(=O)c3cc(=O)c4cc(Cl)ccc4o3)sc2c1 | -1.1
55 | O=C(CCCn1c(=O)c2sccc2n(Cc2ccc(F)cc2Cl)c1=O)NCc1ccc2c(c1)OCO2 | -0.54
56 | Cc1ccc2c(CC(=O)N3CCN(c4cccc(Cl)c4)CC3)coc2c1 | -2
57 | COc1ccc(-c2nnc(SCC(=O)c3ccc([N+](=O)[O-])cc3)o2)cc1OC | -0.51
58 | COCC(=O)N1CCC[C@]2(C1)CN(C1CC3(CCCCC3)C1)CCC2O (stereo not given in full) | -0.06
59 | O=P1(NCCCl)OCCCN1CCCl (stereo not given) | -1.8&-1.8
60 | COc1ccc2nc(NC(=O)c3nc(S(=O)(=O)Cc4ccc(C)cc4)ncc3Cl)sc2c1 | -0.12

Continued:
entry	mol	fixLJ activator
61	CC(NC(=O)c1cc2c(=O)n3ccccc3nc2n(C(C)C)c1=N)c1ccccc1 (stereo not given)	-0.91
62	Cc1cc(C)c2oc(C(=O)Nc3c(C(=O)c4ccccc4)oc4ccccc34)cc(=O)c2c1	-1.9
63	CCOC(=O)Cn1c(=O)oc2cc(S(=O)(=O)N3CCN(c4cccc(C)c4)C(C)C3)ccc21 (stereo not given)	1.4
64	Cc1sc2c(c1C)c(=O)n(-c1ccc(Cl)cc1)c(=O)n2Cc1c(F)cccc1Cl	0.03
65	O=C(CSc1nc(-c2ccc(F)cc2)cc(C(F)(F)F)n1)NCc1ccccc1	-0.19
66	Cc1cccc(-c2nc3c4ccccc4nc(NCc4ccccc4Cl)n3n2)c1	2.5
67	Cc1cc(CC2CN(C(=O)c3ccc4c(c3)CCO4)CC2O)n[nH]1 (stereo not given)	-0.03
68	Cc1nn(-c2ccccc2)c(C)c1CC(=O)N1CCCCC1c1ccn(C)n1 (stereo not given)	-2.7
69	Cc1cc2nn(-c3ccc(Cl)cc3)nc2cc1NC(=O)C(C)C	0.09
70	COc1ccccc1-c1cc(C(=O)NCCc2ccccc2)no1	-0.25
71	CCOC(=O)c1ccccc1NC(=O)NCc1cccn1Cc1ccc(F)cc1	1.6
72	Cc1c(NC(=O)CC(C)C)cccc1NC(=O)c1cncs1	1.3

Overlap with the part before: 3 entries, then new ones.
entry	mol	fixLJ activator
70	COc1ccccc1-c1cc(C(=O)NCCc2ccccc2)no1	-0.25
71	CCOC(=O)c1ccccc1NC(=O)NCc1cccn1Cc1ccc(F)cc1	1.6
72	Cc1c(NC(=O)CC(C)C)cccc1NC(=O)c1cncs1	1.3
73	N#Cc1c(C(F)(F)F)cc(-c2cccs2)nc1SCc1ccccc1F	-1.9
74	CC(C)Nc1ncc(C(=O)N2CC(O)C(Cc3ccnc4ccccc34)C2)cn1 (stereo not given)	0.68
75	CC1=C(C(=O)OCc2ccc(C)cc2)C(c2ccccc2F)CC(=O)N1 (stereo not given)	-0.62
76	COc1ccc(-c2cc3nc(C)c(CCC(=O)N4CCN(c5ccccc5)CC4)c(C)n3n2)c(OC)c1	-1.4
77	Cn1c(=O)c(=O)n(C)c2cc(S(=O)(=O)N3CCCC3C(=O)Nc3ccc(F)cc3)ccc21 (stereo not given)	-0.24
78	COC(=O)c1cc2sccc2n1CC(=O)Nc1ccc(OC)c(OC)c1	-1.8
79	COc1ccc(S(=O)(=O)c2nnn(-c3ccc(C(C)C)cc3)c2C)cc1	-0.78
80	CCCSc1nnc2c(n1)OC(c1ccc(Br)s1)Nc1ccccc1-2 (stereo not given)	-0.05
81	Cc1cc(OCC(=O)N(Cc2ccc(N(C)C)cc2)C2CCS(=O)(=O)C2)cc(C)c1Cl (stereo not given)	0.09
82	CCCCCn1c(=O)[nH]c2cc(C(=O)NCc3ccccc3)ccc2c1=O	0.17
83	COc1ccc(N(CC(=O)N2CCN(c3ccc(F)cc3)CC2)S(=O)(=O)c2c(C)nn(C)c2C)cc1	-1.1
84	CC(C)c1ccc(NC(=O)C2CCCN(S(=O)(=O)c3ccc(Br)s3)C2)cc1 (stereo not given)	0

Quoted at random: 5 records from the list, in no set order.
entry	mol	fixLJ activator
83	COc1ccc(N(CC(=O)N2CCN(c3ccc(F)cc3)CC2)S(=O)(=O)c2c(C)nn(C)c2C)cc1	-1.1
82	CCCCCn1c(=O)[nH]c2cc(C(=O)NCc3ccccc3)ccc2c1=O	0.17
80	CCCSc1nnc2c(n1)OC(c1ccc(Br)s1)Nc1ccccc1-2 (stereo not given)	-0.05
77	Cn1c(=O)c(=O)n(C)c2cc(S(=O)(=O)N3CCCC3C(=O)Nc3ccc(F)cc3)ccc21 (stereo not given)	-0.24
84	CC(C)c1ccc(NC(=O)C2CCCN(S(=O)(=O)c3ccc(Br)s3)C2)cc1 (stereo not given)	0

More records follow:
entry	mol	fixLJ activator
85	CCCNS(=O)(=O)c1ccc(NC(=O)NCCc2nnc(C)s2)cc1	-1.1
86	CCOc1ccc2c(c1)c(=O)c(C(=O)c1ccc(C)cc1)cn2Cc1ccccc1OC	0.84
87	Cc1[nH]c(=O)[nH]c(=O)c1S(=O)(=O)Nc1cccc(Cl)c1C	-0.09
88	COC(=O)c1cc(NC(=O)CCS(=O)(=O)c2cc(Br)cc3c2N(C(=O)C2CC2)CC3)cc(C(=O)OC)c1	-0.58
89	CN1CCC(N2CCCC(C(=O)NCc3cnc4cnccn34)C2)CC1 (stereo not given)	0.93
90	Cc1ccc(-n2c(SCc3nc(-c4ccc(Cl)cc4)no3)nnc2-c2ccncc2)cc1	-1.6
91	CCn1cc(C(=O)OCC(=O)Nc2cccc(Cl)c2C)c(=O)c2ccc(C)nc21	0.15
92	CCOc1ccc2nc(Cl)c(C3CC(c4ccc(OC)cc4)=NN3S(C)(=O)=O)cc2c1 (stereo not given)	-3.8
93	COc1ccccc1-c1nn(CCC(=O)Nc2ccccc2)c2nc(C)cc(C)c12	-0.42
94	Cc1ccc(-c2nc(CS(=O)(=O)CC(=O)NCc3ccccc3Cl)c(C)o2)cc1	-1.3
95	COc1ccc(CNC(=O)c2ccc3c(c2)N(Cc2ccccc2F)C(=O)c2ccccc2S3(=O)=O)cc1	0.16
96	CCc1ccc(CN(Cc2ccco2)C(=O)COc2ccccc2Cl)cc1	0.98
97	COc1cc2c(cc1NC(=O)COc1ccc(Br)cc1C)oc1ccccc12	0.09
98	COC(=O)CCN(c1ccccc1)C(CNS(=O)(=O)c1ccccc1)c1ccccc1 (stereo not given)	2.6
99	COc1cccc(C(=O)Nc2ccc(-c3cn4cccnc4n3)cc2)c1OC	-0.79
100	CCC(=O)N1c2ccc(S(=O)(=O)N3CCC(C)CC3)cc2CC1C (stereo not given)	-1.8
101	CC(C)c1ccc(OCC(=O)Nc2ccc(S(=O)(=O)Nc3ncccn3)cc2)cc1	0.62
102	Cc1ccc(Nc2c(-c3cccnc3)nc3ccc(Cl)cn23)cc1	-1.8
103	Cc1cc(N2CCC(C(=O)N(CC(C)C)CC(C)C)CC2)n2nc(C)c(-c3ccc(Cl)cc3)c2n1	0.33
104	CCOc1ccc(-c2nc(SCC(=O)Nc3ccc4c(c3)OCO4)c(-c3ccc(F)cc3)[nH]2)cc1	-1.4
105	CCN1CC[C@@H]2CC(N3CCOCC3)CC[C@@]2(C(=O)NCc2cnn(C)c2)C1 (stereo not given in full)	0.55
106	Cc1nc2nc(NC(=O)c3ccc(C(C)(C)C)cc3)[nH]n2c(=O)c1Cc1ccccc1	0.65
107	Cc1cccc(-c2noc(CNC(=O)c3ccc(C)cc3C)n2)c1	-1.8
108	CCOCCCn1c(=N)c(C(=O)NCC2CCCO2)cc2c(=O)n3cc(C)ccc3nc21 (stereo not given)	0.34

Ordered by molecular weight (ascending): 3 of the compounds above.
entry	mol	fixLJ activator
99	COc1cccc(C(=O)Nc2ccc(-c3cn4cccnc4n3)cc2)c1OC	-0.79
106	Cc1nc2nc(NC(=O)c3ccc(C(C)(C)C)cc3)[nH]n2c(=O)c1Cc1ccccc1	0.65
104	CCOc1ccc(-c2nc(SCC(=O)Nc3ccc4c(c3)OCO4)c(-c3ccc(F)cc3)[nH]2)cc1	-1.4

(further entries)
entry	mol	fixLJ activator
109	COc1cccc(OC)c1C(=O)Nc1cccc(-c2nc3cc(C)cc(C)c3o2)c1	-0.89
110	O=C(O)c1[nH]cnc1C(=O)N(Cc1cccnc1)C1CCCCC1	-3.7
111	CCN1CC(C(=O)NCCc2csc(-c3ccncc3)n2)CCC1=O (stereo not given)	-0.68
112	COCCNC(=O)Cn1cnc2sc(C)c(S(=O)(=O)N3CCN(c4ccccc4OC)CC3)c2c1=O	1.9
113	CCOc1ccccc1NC(=O)CSc1nc2c(oc3ccccc32)c(=O)n1Cc1ccco1	-1.6

This is a subset. The share of hits here may be higher or lower than overall.
